From PubChem BioAssay
miR-21 reporter = miR-21 reporter, rising signal; HeLa miR-21 FLuc reporter, luciferase, 48 h; AID 2288; 340,000 tested, under 10 active; Potency, µM (series often up to 38.3 µM), for inactives: at the top dose reporter change, positive = more light; active = well fitted rising curve with a large enough effect; inconclusive = small, poorly fitted or top-dose-only effect; inactive = no such curve, though single readings can be large or run the other way;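 note: % of control where 0% means no effect; miR-21 action dims this reporter so a rising signal means less miR-21 action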
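Compounds were titrated across several concentrations (up to approximately 40 uM) and incubated 48 hours with HeLa miR-21-FLuc reporter cells (miR-21 target sequence downstream of FLuc, endogenous miR-21). Readout was firefly luciferase luminescence after lytic detection reagent.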
GLA inh pH 4.5 = inhibitors of human alpha-galactosidase A at pH 4.5 | P06280 | purified enzyme, 4-MU-alpha-Gal fluorescence, pH 4.5 | activity change, negative = inhibition, % at 105 µM | 230,000 tested, under 10 active | AID 1467; inconclusive = small, poorly fitted or top-dose-only inhibition, or a rising curve; inactive = flat fitted curve, though single readings scatter; no compound was filed as active;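 note: 0% = full activity with enzyme and -100% = basal without enzyme; dose as in the result columns while the protocol names 77 µM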
Rango release inh = inhibitors of RanGTP-induced Rango-importin beta complex dissociation; O95149+P62826; Potency, µM (series often up to 46.1 µM), inactives show at the highest dose activity change, negative = inhibition; 340,000 tested, 0.071% active; Biochemical FRET Rango-importin beta, RanGTP-induced dissociation; AID 540253; active means falling FRET ratio curve, often poorly fitted, with flat reads before Ran was added; inconclusive means other falling curves, or compound fluorescence or quenching; inactive means flat or rising ratio curve;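 note: potency is the fitted concentration of half-maximal effect; % of control where 0% means no effect; nearly all actives have a fitted effect of over 45% in size; -100% = wells without RanGTP and RCC1; the record marks most hits as doubtful in a second field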
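Compounds sat 5 min at room temperature with 0.1 uM Rango biosensor plus 0.25 uM importin beta, then FRET pre-read. RanGTP-RCC1 (0.6 uM Ran, 2mM GTP, 0.2 uM RCC1) added for 45 min, and the CFP/YFP post-read measured blocked complex dissociation.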
Rango complex inh = prevents formation of the Rango-importin beta complex. AID 540263. Rango CFP/YFP FRET sensor + importin beta, 45 min. Potency, µM (doses to about 92.2 µM), for the others: top-dose inhibition of complex formation. 340,000 tested, 0.031% active; active = rising FRET ratio curve, often small or poorly fitted; inconclusive = mostly compound fluorescence or quenching in the first reads; inactive = flat curves in all reads;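 note: potency is the fitted concentration of half-maximal effect; 0% = DMSO wells and 100% = buffer wells lacking importin beta; nearly all actives have a fitted effect of over 15% in size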
Target sequence (Q14974 whole entry, looked up): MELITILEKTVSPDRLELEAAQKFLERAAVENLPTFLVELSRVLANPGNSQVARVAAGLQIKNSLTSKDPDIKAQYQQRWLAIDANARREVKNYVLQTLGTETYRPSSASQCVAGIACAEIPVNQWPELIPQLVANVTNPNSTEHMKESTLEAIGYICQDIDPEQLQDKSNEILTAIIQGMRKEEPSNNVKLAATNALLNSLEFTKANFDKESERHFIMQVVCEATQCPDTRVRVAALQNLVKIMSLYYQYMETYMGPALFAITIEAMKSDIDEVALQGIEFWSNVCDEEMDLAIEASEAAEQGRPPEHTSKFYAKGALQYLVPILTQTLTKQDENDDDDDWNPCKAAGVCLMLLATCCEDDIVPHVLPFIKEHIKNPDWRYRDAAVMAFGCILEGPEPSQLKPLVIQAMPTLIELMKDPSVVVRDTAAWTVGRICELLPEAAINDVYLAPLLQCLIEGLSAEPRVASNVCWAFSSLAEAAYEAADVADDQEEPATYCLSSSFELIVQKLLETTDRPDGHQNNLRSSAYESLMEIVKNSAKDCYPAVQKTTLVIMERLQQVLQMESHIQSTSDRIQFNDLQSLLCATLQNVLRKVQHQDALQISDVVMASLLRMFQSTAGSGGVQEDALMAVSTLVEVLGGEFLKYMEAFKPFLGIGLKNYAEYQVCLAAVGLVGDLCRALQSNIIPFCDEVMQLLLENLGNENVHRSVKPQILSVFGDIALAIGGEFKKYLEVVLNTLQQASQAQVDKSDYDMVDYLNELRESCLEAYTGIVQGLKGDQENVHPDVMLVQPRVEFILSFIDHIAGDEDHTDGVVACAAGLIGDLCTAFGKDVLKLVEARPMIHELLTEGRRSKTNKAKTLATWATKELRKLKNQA
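FRET biosensor (snurportin 1 IBB flanked by EYFP and cerulean), 50 nM, with compound 5 min, then 0.125 microM importin beta in PBS, 1 mM DTT, 0.02% Tween-20, 0.1% BSA. CFP/YFP ratio read after 45 min at room temperature; pre-read flags interference.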
* marks the source's active call; other numbers are inactive results; u = inconclusive; x = not tested or not shown; & = joins results of further samples. Some of the compounds tested, so the mix of outcomes need not match the whole.

| SMILES | GLA inh pH 4.5 | Rango release inh | Rango complex inh | miR-21 reporter |
| --- | --- | --- | --- | --- |
| COc1ccccc1-n1nc(C(=O)O)c2ccccc2c1=O | 4 | -9% | 1.0% | -5% |
| COc1ccc(Br)cc1S(=O)(=O)N1CCCc2ccccc21 | x | -10% | -0.2% | 2% |
| C=CCn1c(C)csc1=Nc1ccc(C(C)=O)cc1 | -3 | u | u | -73% |
| N#Cc1cc2c(nc1SCC(O)CS(=O)(=O)Cc1ccc(Cl)cc1)CCCC2 (centres undefined) | 1 | 1% | -2.2% | 14% |
| CC(C)(C)OC(=O)CNC(=O)c1[nH]cnc1C(=O)N[C@@H](CCCCNC(=O)OC(C)(C)C)C(=O)OC(C)(C)C | -11 | -3% | 2.0% | 16% |
| COc1cc(NC(=O)C2CCCN(S(=O)(=O)c3ccc4[nH]c(=O)ccc4c3)C2)cc(OC)c1 (centres undefined) | x | 5% | 2.2% | -5% |
| CC(=O)c1ccc(Oc2cc(C)nc(NCc3ccccc3)n2)cc1 | -6 | 5% | -2.6% | 4% |
| c1ccc(COc2ccccc2CNCc2cccnc2)cc1 | -2 | -10% | 0.5% | -2% |
| CCN(CC)c1ccc(C(=S)NC2CCCCC2)cc1 | -11 | 13% | 1.1% | -34% |
| CCOc1ccc(NC(=O)Cn2cc(C(=O)C3CC3)c3ccccc32)cc1 | x | -8% | 1.0% | 17%&11% |
| COc1cc(NC(=O)CCS(=O)(=O)c2ccc3c(c2)oc(=O)n3C)cc(OC)c1OC | x | -9% | 3.5% | 0% |
| Cc1oc2c(c1C(=O)NC(Cc1c[nH]c3ccccc13)C(=O)O)CCCC2 (centres undefined) | -6 | -10% | 3.8% | 1% |
| O=C(CNC(=O)c1ccco1)N/N=C/c1ccc(O)c([N+](=O)[O-])c1 | -3 | -4% | 3.1% | -3% |
| CCCN1CCC(NC(=O)Nc2ccc([N+](=O)[O-])cc2)CC1 | -2 | -8% | 1.4% | -1% |
| O=C(Nc1ccc(Cl)cc1F)C1CC1 | -3 | -5% | -1.2% | -5% |
| CN(C)c1ccnc(-n2cccc2/C=N/O)c1C#N | 0 | 12% | 5.1% | 1% |
| CC(=O)/C=N/Nc1ccccc1 | -11 | -13% | 4.5% | 0% |
| O=C(c1ccccc1)N1CCN(C(=O)c2ccncc2)CC1 | x | 9% | 10.0% | x |
| O=C(CN1CCN(c2ncc(C(F)(F)F)cc2Cl)CC1)N1CCN(c2ncc(C(F)(F)F)cc2Cl)CC1 | -8 | 10% | -5.1% | 2% |
| COc1cc2sc(NC(=O)c3ccco3)nc2cc1Cl | x | 1% | 0.4% | -73% |
| Clc1ccc(/C=N/N2CCCCC2)cc1 | 1 | 8% | 0.3% | -13% |
| CC(C)OC(=O)C[N+](C)(C)CCN1C(=O)C2C(c3ccccc3)C=CC(c3ccccc3)C2C1=O (centres undefined) | -7 | -13% | 6.5% | -2% |
| CC(C(=O)NC(C)(C)C)N(C(=O)CS(=O)CC(=O)Nc1ccc(F)cc1)c1ccccc1F (centres undefined) | -6 | 0% | -1.3% | 1% |
| COc1ccc2cc(C3=CCCCC3)ncc2c1 | x | 18% | -1.5% | x |
| N/C(Cc1cccs1)=N\OC(=O)COc1ccc(Cl)cc1Cl | 5 | -12% | 0.1% | -55% |
| OCc1ccccc1CN1CCCCCC1 | x | 9% | 2.1% | x |
| Nc1cc([N+](=O)[O-])cc2oc(-c3ccccc3)cc12 | x | 4% | 0.2% | -62% |
| N=c1c2ccccc2nnn1-c1ccc(C(F)(F)F)cc1 | -3 | 15% | -2.7% | -16% |
| CC(=O)Nc1ccc(C(=O)Nc2ccc3c(c2)OCO3)cc1 | -4 | 10% | -7.8% | -33% |
| COc1ccc(NC(C)=O)cc1NC(C)C(=O)Nc1cccc(S(=O)(=O)N2CCOCC2)c1 (centres undefined) | x | -8% | -1.1% | x |
| CC(=O)Nc1nc(C)c(-c2csc(Nc3ccccn3)n2)s1 | -1&1 | -20%&-11% | -2.2%&-5.2% | -40%&-23% |
| CN(Cc1ncc[nH]1)C(=O)c1cc(COc2c(F)cccc2F)on1 | 3 | 1% | 0.2% | 3% |
| CC1(C(=O)N2CC3(CC(c4cccc(NC(=O)COc5ccc(Cl)cc5)c4)=NO3)C[C@@H]2C(N)=O)CC1 (some centres undefined) | -1 | 3% | 4.4% | 12% |
| O=c1c2cc(Cl)ccc2nc(-c2ccccc2Cl)n1O | 6 | 0% | -3.0% | 3% |
| COc1cc2oc(=O)cc(-c3ccc(-c4ccc(N(C)C)cc4)cc3)c2c(OC)c1OC | -9 | -14% | u | x |
| O=c1oc2ccccc2c(NCc2ccc(Cl)cc2)c1[N+](=O)[O-] | -3 | 6% | 4.0% | -1% |
| CCc1cc(=O)[nH]c(SCc2cccc3ccccc23)n1 | x | 1% | 3.9% | -9% |
| O=C(NC1c2ccccc2-c2ccccc21)N1CCOCC1 | 3 | 2% | -4.4% | 29% |
| CCOc1ccc(C(=O)Nc2ccccc2N2CCN(C(=O)c3ccccc3)CC2)cc1[N+](=O)[O-] | x | 4% | 1.6% | -1% |
| Cc1c(N)cc(S(=O)(=O)O)cc1NC(=O)c1cccc([N+](=O)[O-])c1 | x | 4% | 6.3% | x |
| Cc1ccc(CNC(=O)COc2cccc3c2OC(C)(C)C3)cc1 | x | -24% | -0.7% | x |
| O=C(CCCCC(=O)N1CCOCCOCCOCC1)OCc1ccccc1 | -8 | 21% | u | -13% |
| CC(C)COc1ccc(C/C(N)=N/n2cnnc2)cc1 | 8 | -19% | -5.6% | 11% |
| O=C(OCC(=O)N(CCc1ccccc1)Cc1ccccc1)c1cccc(O)c1 | x | 8% | 4.2% | x |
| CCOC(=O)CNC(=O)C1CCN(S(=O)(=O)c2ccc(-c3nn[nH]n3)cc2)CC1 | x | 1% | 0.3% | 7% |
| CC(=O)Nc1c(C)nn(C(C)=O)c1C | 6 | 2% | -3.0% | -2% |
| CC1CCCN(c2ccc([N+](=O)[O-])s2)C1 (centres undefined) | -1 | 6% | 8.4% | -13% |
| CC1(C)NC(C(=O)O)Cc2c1[nH]c1ccccc21 (centres undefined) | x | 19% | 6.8% | -3% |
| COc1cc(C(=O)Nc2ccccc2N2CCN(S(C)(=O)=O)CC2)cc(OC)c1OC | 5 | 2% | u | 3% |
| Fc1ccc(C2c3[nH]c4ccccc4c3CCN2CCCn2cccn2)cc1 (centres undefined) | -8 | -2% | u | 8% |

The final two entries of the section above lead into the next.
| SMILES | GLA inh pH 4.5 | Rango release inh | Rango complex inh | miR-21 reporter |
| --- | --- | --- | --- | --- |
| COc1cc(C(=O)Nc2ccccc2N2CCN(S(C)(=O)=O)CC2)cc(OC)c1OC | 5 | 2% | u | 3% |
| Fc1ccc(C2c3[nH]c4ccccc4c3CCN2CCCn2cccn2)cc1 (centres undefined) | -8 | -2% | u | 8% |
| CCCCN(C(=O)c1cnc2n(c1=O)CCS2)c1ccccc1 | -5 | -9% | -1.4% | 0% |
| Cc1cccc(-c2c3c(=O)n(C)c(=O)n(C)c3cn2C(C)(C)C)c1 | 4 | 1% | -1.5% | -24% |
| COc1ccc(C(=O)NCc2nnc(SCC(=O)N3CCCCC3)o2)cc1 | 7 | -1% | 0.5% | 1% |
| CNC(=O)CCc1[nH]c2ccccc2c1Sc1ccccc1 | 3 | 9% | -0.2% | -2% |
| Cc1ccc(NC(=S)N2CCC(C(=O)c3ccc(F)cc3)CC2)cc1C | x | 14% | -1.0% | x |
| O=c1cc(O)nc2n1CCCS2 | 3 | -9% | 3.5% | -1% |
| NNC(=S)NCc1cccnc1 | 4 | 5% | 3.5% | -1% |
| NC(=O)c1cccc2c1C(=O)N(C1CCCCC1)C2 | 5 | -3% | 0.0% | -18% |
| CCc1nnc(NC(=O)Nc2ccc(OC)cc2)s1 | -1 | 18% | 4.6% | -56% |
| Cc1csc(NC(=O)c2ccncc2)n1 | -8 | u | -1.1% | -22% |
| O=C(NC1CCCC1)C(c1ccc(N2CCOCC2)cc1)N(C(=O)c1ccco1)c1ccccc1F (centres undefined) | 10 | -9% | 4.3% | -3% |
| O=C(NNC(=O)C1CCCC1)c1ccc(F)cc1 | x | -13% | 0.1% | -5% |
| COCC(=O)OC1CCn2c1nc1c2C(=O)C(C)=C(NC(C)=O)C1=O (centres undefined) | x | -7% | -4.0% | x |
| COc1cc(CN(C2CC2)S(=O)(=O)c2ccccc2Br)cc(OC)c1 | x | -8% | -1.0% | x |
| Cc1onc(-c2c(F)cccc2Cl)c1C(=O)OCN1C(=O)c2ccccc2C1=O | -4 | -13% | u | -2% |
| COCCCNC(=O)Cn1cc(C(=O)c2cccs2)c2ccccc21 | -1 | 2% | 7.3% | -5% |
| Cc1c(C(=O)Nc2cccc([N+](=O)[O-])c2)csc1-c1ccccc1 | -2 | 7% | -0.4% | -18% |
| COc1ccc(CNc2c(C(=O)O)cnc3c2cnn3C)cc1 | 4 | 3% | -0.5% | -13% |
| CCc1ccc(N=C2NC(=O)/C(=C/c3cc(Br)c(OCC(=O)O)c(OC)c3)S2)cc1 | x | 0% | 0.1% | -4% |
| COc1ccc(C(=O)Nc2ccnn2C2CCN(Cc3ccccn3)CC2)cc1 | x | -6% | u | -5% |
| COc1ccc(N(Cc2ccccc2)S(=O)(=O)c2cccc(C(=O)Nc3ncccc3C)c2)cc1 | x | 12% | 3.5% | x |
| CC1CCN(C(=O)CSc2nc3c(c(=O)n2C)SCC3)CC1 | x | 10% | -0.4% | -7% |
| COc1c(C)cc(Br)cc1C(=O)NC(=S)NCc1ccco1 | x | -1% | -1.2% | -5% |
| Cc1nn(-c2ccccc2)c2ncc(C(=O)c3cc(Cl)ccc3O)cc12 | -4 | -11% | u | -10% |
| O=C(Nc1ccc(F)cc1)Nc1ccc2c(c1)OCO2 | x | -1% | 1.1% | 0% |
| CCOC(CNC(=O)c1cc(C)nn1-c1ccccc1)OCC | 4 | -5% | 4.0% | -1% |
| O=C(Nc1cccc(-c2nnc(-c3ccccc3)o2)c1)C1CCCCC1 | 3 | -8% | -1.0% | -12% |
| Cc1ccc(S(=O)(=O)Nc2ccc(C(=O)N3CCOCC3)cc2)cc1 | x | 2% | -2.0% | -2% |
| COc1ccc(F)cc1S(=O)(=O)NC(Cc1ccccc1)C(N)=O (centres undefined) | -2 | -13% | 1.0% | 1% |
| CN(C)S(=O)(=O)c1ccc(NC(=O)c2ccncc2)cc1 | -4 | 11% | 2.9% | -2% |
| O=C(CSc1ncn[nH]1)N1N=C2/C(=C/c3ccccc3)CCCC2C1c1ccccc1 (centres undefined) | 3 | 3% | -2.5% | 11% |
| Cc1sc(NC(=O)c2cc(-c3ccccc3)nc3ccccc23)c(C(N)=O)c1C | -5 | 4% | 2.1% | 4% |
| Cc1ccc(S(=O)(=O)N(CCC(=O)O)c2ccccc2)cc1 | 2 | 6% | 2.0% | 1% |
| CC(C)(C)OC(=O)C[C@@H]1C/C=C\C[C@@H](CC(=O)NCCO)C(=O)NC[C@H](c2ccccc2)OC1=O | x | 0% | 4.3% | x |
| COc1ccccc1NC(=O)c1csc2c1CCC(C)C2 (centres undefined) | 3 | -13% | -0.6% | -67% |
| COC1=C(C)C(=O)C2=C(C1=O)C1C3CC4=C(C(=O)C(OC)=C(C)C4=O)C(CNC(=O)C(C)=O)N3C(C#N)C(C2)N1C (centres undefined) | x | -13% | u | x |
| O=C(NNC1=C(C(=O)C(F)(F)F)CCC1)c1cccc(O)c1 | 2 | -7% | 2.6% | -41% |
| COc1ccc(/C=C(\C#N)C(=O)c2c(C)[nH]c3ccccc23)cc1OC | -11 | -9% | -2.0% | 2% |
| CCOC(=O)c1c(C)n(C)c2cc(Br)c(C(=O)OC)cc12 | 0 | 4% | 2.3% | -19% |
| O=c1[nH]c(CN2CCc3ccccc3C2)nc2ccccc12 | -1 | -21% | -2.9% | -14% |
| CC(Oc1ccc(Cl)cc1Cl)C(=O)NCCCN(C)C (centres undefined) | 5 | 1% | -1.9% | -4% |
